# Bioassay records as filed in PubChem.
# OX1R antag – OX1R (HCRTR1) antagonists, primary screen, fluorescence, CHO/OX1R cells, Fluo-8 calcium, orexin A; Orexin/Hypocretin receptor type 1 (Homo sapiens), O43613; inhibition, % at 5 µM; Fluo-8 calcium fluorescence; 330,000 tested, 0.43% active;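 active means inhibition above its plate's threshold, mean inhibition of all tested compounds on the plate plus 3 SD, cut at about 37% in these data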;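 further: 0% = orexin A challenge wells and 100% = SB-334867-A antagonist wells; not every result past the cut was called active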
# Target sequence (O43613 whole entry, looked up): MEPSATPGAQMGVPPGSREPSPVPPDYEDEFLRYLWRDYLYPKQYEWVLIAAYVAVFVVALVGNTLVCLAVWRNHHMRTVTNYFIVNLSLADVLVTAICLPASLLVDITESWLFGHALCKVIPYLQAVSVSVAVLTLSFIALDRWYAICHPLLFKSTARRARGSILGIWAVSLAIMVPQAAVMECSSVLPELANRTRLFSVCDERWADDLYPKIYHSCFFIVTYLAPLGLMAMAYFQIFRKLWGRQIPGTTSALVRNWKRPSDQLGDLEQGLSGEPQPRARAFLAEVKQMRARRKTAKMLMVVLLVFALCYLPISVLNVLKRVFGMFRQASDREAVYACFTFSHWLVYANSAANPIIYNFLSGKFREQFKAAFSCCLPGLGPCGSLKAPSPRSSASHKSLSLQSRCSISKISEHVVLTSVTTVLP
# * = called active by the depositor.
compound | OX1R antag
CCCCNC(=O)CS(=O)Cc1nc(-c2ccc(C)cc2)oc1C (configuration not stated) | -19
COc1ccc(Cl)cc1NC(=O)NCc1ccco1 | 1
Cc1ccc2nc(SCC(=O)NC3CC3)[nH]c2c1 | -10
Cc1cc(C)n(CC(O)COc2ccccc2C(=O)Nc2ccccc2)n1 (configuration not stated) | -12
COc1ccc(N2CCN(C(=S)Nc3cc(C)ccc3C)CC2)cc1 | 4
O=C1CC(c2ccco2)Cc2nc(N3CCN(Cc4ccc5c(c4)OCO5)CC3)ncc21 (configuration not stated) | -27
O=C(/C=C/c1c(F)cccc1Cl)Nc1ncccn1 | -9
Cc1nc2sc3c(c2c(=N)n1N)CCCC3 | -18
COc1ccccc1NC(=O)CN1C(=O)CCS(=O)(=O)c2ccccc21 | -11
COc1cccc(C(=O)/C=C2\NCCc3cc(OC)c(OC)cc32)c1 | 23
CCOC(=O)c1cc(C)sc1/N=C/C1C(=O)CCCC1=O | -6
CC(=O)N(c1ccc(N(C(C)=O)S(=O)(=O)c2ccccc2)cc1)S(=O)(=O)c1ccccc1 | -34

# (continued)
compound | OX1R antag
COc1ccccc1OCCC(=O)OCC(=O)NC(C)c1ccccc1 (configuration not stated) | -15
CN1CC(c2ccc(Cl)c(Cl)c2)[C@@]2(COc3ccccc3C2=O)[C@@]12C(=O)Nc1ccccc12 (some centres not stated) | -6
CCCCn1c(N)c(N(CCOC)C(=O)c2cc(-c3ccc(OC)c(OC)c3)nc3ccccc23)c(=O)[nH]c1=O | -15
COc1cccc(/C=C/C(=O)OCC(=O)NCc2ccco2)c1 | -11
COc1ccc(Cc2nnc(NC(=O)C3CCCO3)s2)cc1OC (configuration not stated) | -17
Nc1ccc(S(=O)(=O)Nc2nccc(/C=C/c3ccc(Cl)cc3Cl)n2)cc1 | -8
N#CC[n+]1cc(-c2ccc(Cl)cc2)n2c1CCC2 | -5
CCC(C)NCC(=O)Nc1ccc([N+](=O)[O-])cc1C(=O)Nc1ccccc1F (configuration not stated) | -28
CCN(CC)C(=O)c1cc2c(=O)n3ccccc3nc2s1 | -10
O=C(Nc1cccc(C(F)(F)F)c1)C(Sc1n[nH]c(=O)[nH]c1=O)c1ccccc1 (configuration not stated) | -11
CCN(CC)C(=O)Oc1ccc2c(=O)c(-c3ccc(OC)cc3)coc2c1 | -6
CCCCNC(=O)c1cc(-c2ccc(OC)c(OC)c2)on1 | -28

# Further records follow:
compound | OX1R antag
Cc1ccc(CSCCC(=O)NCCC2=CCCCC2)cc1 | -24
COc1cc(C(C)=O)ccc1OCC(O)Cn1nc(C)c(C(C)=O)c1C (configuration not stated) | -18
NC(=O)c1sc2nc(-c3ccccc3)ccc2c1N | -2
O=C(COc1ccc(Br)cc1Cl)NC1CCN(Cc2ccccc2)CC1 | -21
COc1cc(CCN2C(=O)c3cccc4cccc(c34)C2=O)c(S(=O)(=O)NCCO)cc1OC | -16
COC(=O)CSc1nnc(-c2cccs2)n1-c1ccc(Cl)cc1 | -31
Cc1ccc(C(=O)NCc2ccc3c(c2)OCO3)cc1S(=O)(=O)N1CCCCC1 | -14
COc1ccc(/C=N/Nc2cc(C)nc(-n3nc(C)cc3C)n2)c(OC)c1 | -29
C/C(=N\OC(=O)c1c(-c2ccccc2Cl)noc1C)c1ccncc1 | -1
C=CCn1c(SCc2ccc(F)cc2)nnc1-c1sc2nc(C)cc(C)c2c1N | -17
COCCCNC(=O)CSc1c2c(nc3ccc(Cl)cc13)CCCC2 | -33
COc1ccccc1Nc1nnc(Cc2ccccc2)c(=O)[nH]1 | -6

# Later entries.
compound | OX1R antag
COc1ccc(OC)c(NC(=O)C(CCS(C)(=O)=O)NC(C)=O)c1 (configuration not stated) | 8
O=S(=O)(Nc1ccc(S(=O)(=O)N2CCOCC2)cc1)c1ccccc1 | -1
COc1ccc(OC)c(C2C(C(=O)Nc3ccc(F)cc3)=C(C)Nc3nc(CCCO)nn32)c1 (configuration not stated) | -9
Cc1ccc(N/N=C2\CC(=O)c3ccccc32)cc1Cl | -20
O=C(CNC(=O)c1ccccc1)NCC(O)c1ccc([N+](=O)[O-])cc1 (configuration not stated) | -12
CCCCNC(=O)CSc1nc2ccccc2c(=O)n1CCNC(C)=O | -2
Cc1ccc(N2C(=O)c3ccccc3NC2(C(=O)O)c2ccccc2)cc1Cl (configuration not stated) | -29
CC1CN(C(=O)CCC(=O)NCc2ccccc2)c2ccccc2S1 (configuration not stated) | -29
Nc1nc(SCc2nc3sc4c(c3c(=O)[nH]2)CCCC4)n[nH]1 | -22
O=C(NN=C1CCCC1)c1cc(Br)ccc1O | 13
CCOC(=O)C1CCN(C(=O)COc2ccc(S(=O)(=O)NC(C)C)cc2Cl)CC1 | -7
CC1CCN(C(=O)CN(c2ccc(Cl)c(C(F)(F)F)c2)S(C)(=O)=O)CC1 | -21

# (list continues)
compound | OX1R antag
O=C(NCc1ccncc1)C(=O)NCC1OCCCN1S(=O)(=O)c1cc(F)ccc1F (configuration not stated) | -1
COc1ccccc1N1CCN(C(=O)CC2NC3CCCCC3NC2=O)CC1 (configuration not stated) | -10
Cn1c2c(c3cc([N+](=O)[O-])ccc31)CCCC2 | 2
CCOc1ccc(S(=O)(=O)N(C)c2ccc(OCC(=O)N3CCOCC3)cc2)cc1 | -22
COc1cccc(CN(C(=O)CN2C(=O)c3ccccc3S2(=O)=O)C(C(=O)NCC2CCCO2)c2ccco2)c1 (configuration not stated) | -26
COCCSc1ccccc1C(=O)NCCCn1ccnc1 | -11
CCOc1ccc(NC(=O)CN2C(=O)CCSc3ccc(S(=O)(=O)N4CCCC4)cc32)cc1 | -28
Cc1ccc(-n2ncc3c(N4CCN(c5ccc(F)cc5)CC4)ncnc32)c(C)c1 | -10
O=C(CCc1nc2ccccc2s1)c1ccccc1 | -16
CCCn1nc(C(=O)OCC(=O)Nc2cccc(S(N)(=O)=O)c2)c2ccccc2c1=O | -18
CC(=O)c1nn(-c2cccc(Br)c2)cc1C(=O)c1ccc2ccccc2c1 | -12
OCCNNC(=S)NC1CC2C=CC1C2 (configuration not stated) | 2

# Further compounds follow:
compound | OX1R antag
Cc1ccc(/C=C/C(=O)NC(=S)Nc2ccccc2C(=O)NC2CCCCC2)cc1 | -18
N#C/C=C\Oc1ccc(Cl)cc1N | -6
CCOC(=O)c1c(N/N=C/c2cccnc2)n[nH]c1C | -33
CC1c2cc3c(cc2CCN1CC(=O)Nc1ccccc1)OCCCO3 (configuration not stated) | -22
COc1ccc2[nH]c(C(O)(Cc3cccnc3)Cc3cccnc3)cc2c1 | -10
Cc1c(NC(=O)c2cccnc2Cl)c(=O)n(-c2ccccc2)n1C | -8
O=C(NC(=S)N(CC1CCC1)CC1CCCO1)c1cccc([N+](=O)[O-])c1 (configuration not stated) | -30
COc1ccc(/C=N/NC(=O)CNC(=O)c2ccc3c(c2)OCCO3)c(C(=O)O)c1OC | -4
COc1cccc(NC(=O)NC2CCN(Cc3nnnn3Cc3ccc(F)cc3)CC2)c1 | -26
O=C(O)c1cccc(C(=O)c2cccc3ccccc23)c1 | -4
CCCNC(=O)NNC(=O)c1ccc(F)cc1 | -2
O=C(Nc1nccs1)c1ccc(COc2ccc(Cl)cc2)o1 | -16

# New compounds follow
compound | OX1R antag
CC(=O)Nc1cc(C(F)(F)F)ccc1N1CCOCC1 | -1
CC(C)C(=O)Nc1ccc(-c2nc3ccccc3c(=O)o2)cc1 | 3
COc1ccc2c(c1)C(=O)N(c1ccc(C)cc1C)C(=O)C2(C)C | -33
Cc1ccccc1Cn1c(=N)n(CC(=O)c2ccc([N+](=O)[O-])cc2)c2ccccc21 | -10
OCCN1CCN(c2nnc(-c3ccccc3)c3ccccc23)CC1 | -7
COC(=O)Nc1sc(C)nc1-c1ccccc1 | 0
COCCNC(=O)C(=O)NCC1OCCN1S(=O)(=O)c1cccs1 (configuration not stated) | -9
CCn1ccnc1CN(C)C(=O)c1cc(COc2ccccc2SC)on1 | -21
CC(C)c1ccc(Cc2nnc(NCCCO)[nH]c2=O)cc1 | 0
CNCCCOc1cccc(OC(C)C)c1 | -22
CCC(C)NS(=O)(=O)c1ccc(S(=O)(=O)N(CC(=O)Nc2ccccc2)CC2CCCO2)cc1 (configuration not stated) | -28
Cc1ccccc1NC(=S)NCc1ccc2c(c1)OCO2 | -17

# New compounds follow.
compound | OX1R antag
COc1ccccc1-n1c(SCC(N)=O)nc2sc3c(c2c1=O)CCC3 | -26
COc1ccccc1/C=N/N1CCN(Cc2ccccc2Cl)CC1 | -4
COc1ccc(S(=O)(=O)Nc2ccc3c(c2)OCO3)cc1Cl | -2
C[C@H](NC(=O)C1CCN(S(=O)(=O)c2ccccc2)CC1)C(=O)NCc1ccco1 | 1
COC(=O)[C@@]12CCCN1[C@H](c1ccc(-c3ccc(OC)cc3)cc1)[C@@H]1C(=O)N(C)C(=O)[C@@H]12 | 4
CCOC(=O)C1(Cc2cccc(OC)c2)CCN(Cc2ccc(OC)c(OC)c2)CC1 | -53
Cc1cc(NN)nc(NS(=O)(=O)c2ccccc2)n1 | -23
Cc1ccc(C)c(S(=O)(=O)NCc2ccc(C(=O)N3CC(C)OC(C)C3)cc2)c1 (configuration not stated) | -24
COc1ccc(/C=N/c2nc3ccccc3n2CCN2CCCCC2)cc1OC | -1
Cc1cc(O)c(C(=O)Nc2cccc(Cl)c2)c(=O)n1C | -2
C=CCn1c(SCC(=O)Nc2ccc(N3CCOCC3)cc2)nnc1-c1ccco1 | -6
CCOC(=O)c1c(NC(=O)CN2C(=O)NC3(CCCCC3)C2=O)sc(C)c1-c1ccc(C)cc1 | -17

# Next part (6 carried over from the part before).
compound | OX1R antag
Cc1cc(NN)nc(NS(=O)(=O)c2ccccc2)n1 | -23
Cc1ccc(C)c(S(=O)(=O)NCc2ccc(C(=O)N3CC(C)OC(C)C3)cc2)c1 (configuration not stated) | -24
COc1ccc(/C=N/c2nc3ccccc3n2CCN2CCCCC2)cc1OC | -1
Cc1cc(O)c(C(=O)Nc2cccc(Cl)c2)c(=O)n1C | -2
C=CCn1c(SCC(=O)Nc2ccc(N3CCOCC3)cc2)nnc1-c1ccco1 | -6
CCOC(=O)c1c(NC(=O)CN2C(=O)NC3(CCCCC3)C2=O)sc(C)c1-c1ccc(C)cc1 | -17
C(=N\Nc1nncc2ccccc12)/c1ccccn1 | -13
COc1ccccc1N(C)S(=O)(=O)c1ccc(C(=O)Nc2nc(C)cs2)cc1 | -12
COC(=O)Cn1cc(/C=C/c2cc[n+](C)cc2)c2ccccc21 | -10
COCCNC(=O)CN1C(=O)CC(C)(C)S(=O)(=O)c2ccccc21 | 2
O=C(NCCSc1ccccc1)c1ccccc1 | -6
COc1ccc(CN2CCNC(=O)C2CC(=O)O)c(OC)c1 (configuration not stated) | -20
Cc1cc(=O)[nH]c(SCc2nnc(-c3ccccc3)o2)n1 | 7
COC(=O)c1c(NC(=O)C(=O)N2CCOCC2)sc2c1CCCC2 | -26
CCn1ncc(Cl)c1C(=O)NC(=S)Nc1c(C)cc(C)cc1[N+](=O)[O-] | -24
O=C(CNC(=O)c1ccc2c(=O)n3c(nc2c1)CCC3)Nc1ccc(F)c(F)c1 | 0
Cc1cc(C)n(-c2nc3ccccc3nc2N2CCN(C(=O)c3ccc(F)cc3)CC2)n1 | -13
CCOC(=O)N/N=C(\C)c1ccc(Oc2ncccn2)cc1 | -1

# (continued)
compound | OX1R antag
COc1ccc(NC(=O)CN2CCN(c3c(C)cccc3C)CC2)cc1 | -17
CCOC(=O)CSc1nc2ccccc2c(=O)n1CCC(=O)NCCc1ccc(OC)c(OC)c1 | -6
Cc1cc(NC(=O)Cc2cn3ccsc3n2)n(-c2ccccc2)n1 | -18
CCN(CC)c1ccc(-c2nnc(SCC(=O)Nc3ccccc3C#N)n2-c2ccccc2)cc1 | -37
CCOC(=O)c1c(C)[nH]c(-c2csc(C)n2)c1C | -34
CCC1=NN(C(=O)Cc2ccc([N+](=O)[O-])cc2)C(O)(C(C)(C)C)C1 (configuration not stated) | -1
COc1ccccc1NC(=O)CN1CCN(c2ccccc2OC)CC1 | -35
O=C(CCCn1c(=O)c2cccn2c2cccnc21)NCCc1ccc(Cl)cc1 | -29
COC(=O)C1CCCN1C(=O)C1CCCN1C(=O)CNC(=O)OCc1ccccc1 (configuration not stated) | -10
CCc1cc(C(=O)N(Cc2ccccc2)c2c(N)n(CCOC)c(=O)[nH]c2=O)sc1C | -28
c1ccc(CNc2cncnc2)cc1 | -1
O=C(/C=C/c1ccccc1[N+](=O)[O-])NCCN1C(=O)S/C(=C\c2ccc(F)cc2)C1=O | -17

# For convenience, 5 of the compounds above.
compound | OX1R antag
COC(=O)c1c(NC(=O)C(=O)N2CCOCC2)sc2c1CCCC2 | -26
CCn1ncc(Cl)c1C(=O)NC(=S)Nc1c(C)cc(C)cc1[N+](=O)[O-] | -24
O=C(CNC(=O)c1ccc2c(=O)n3c(nc2c1)CCC3)Nc1ccc(F)c(F)c1 | 0
Cc1cc(C)n(-c2nc3ccccc3nc2N2CCN(C(=O)c3ccc(F)cc3)CC2)n1 | -13
CCOC(=O)N/N=C(\C)c1ccc(Oc2ncccn2)cc1 | -1

# Later entries:
compound | OX1R antag
COc1ccc(NC(=O)CSc2nnc(CNC(=O)COc3ccc(Cl)cc3)o2)cc1 | -11
CC1(C)Cc2c(sc(/N=C/N3CCCCC3)c2C#N)C(C)(C)N1 | -18
CC(Oc1ccc(C(C)(C)C)cc1)c1ccnc2nc(/N=C/N(C)C)nn12 (configuration not stated) | -23
COc1cc(/C=C/CO)ccc1O[C@@H]1O[C@H](CO)[C@@H](O)[C@H](O)[C@H]1O | 6
CC(C)c1nnc(NC(=O)C2CCN(c3nc4ccccc4s3)CC2)s1 | 2
CC(=O)Nc1ccc(S(=O)(=O)N(C)c2ccc(OCC(=O)OCC(=O)Nc3ccc(OC(F)F)cc3)cc2)cc1 | 13
CCC(C)NC(=O)Cn1c(=O)n(-c2ccccc2)c(=O)c2ccc(C(=O)NCc3ccco3)cc21 (configuration not stated) | -8
O=C(COC(=O)c1cc(S(=O)(=O)NCc2ccccc2)ccc1O)c1cc2ccccc2o1 | -11

# This is a subset; most or all hits stand in other tables.
